ClpP mod – qHTS Assay for Activators of ClpP | Potency, µM (doses to about 57.5 µM), for the others: at the highest dose activity change, negative = active | 340,000 compounds, 1.9% hits | purified B. subtilis ClpP, FRET peptide cleavage, 20 min | AID 651965, 2013 | ATP-dependent Clp protease proteolytic subunit (Bacillus subtilis (strain 168)), P80244; active = well fitted falling curve with a large enough effect; inconclusive = small, poorly fitted or top-dose-only effect; inactive = no such curve, though single readings can be large or run the other way; also: potency is read from the fitted curve at half-maximal effect; the source files actives as falling curves though it sought activators and does not explain the sign; nearly all actives have a fitted effect of over 65% in size; many hits overshoot -100%
Target sequence (P80244 whole entry, looked up): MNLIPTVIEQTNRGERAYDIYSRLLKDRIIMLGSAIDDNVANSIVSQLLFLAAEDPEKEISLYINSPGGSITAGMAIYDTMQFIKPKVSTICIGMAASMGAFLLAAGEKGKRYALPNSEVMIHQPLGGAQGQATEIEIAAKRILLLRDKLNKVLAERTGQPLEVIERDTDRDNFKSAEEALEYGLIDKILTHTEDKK
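Purified B. subtilis ClpP, 10 microg/mL final in Tris/HCl pH8 with KCl, BSA, glycerol and Tween-20, cleaved an Abz/nitrotyrosine-quenched decapeptide. Fluorescence (ex 320, em 430) was read at 0 and 20 min at room temperature. Delta was normalized to 5.8 microM ADEP and DMSO/no-enzyme controls.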
gsp antag – antagonizes gsp, the McCune-Albright syndrome mutation. 340,000 compounds, 0.4% hits. Potency, µM (top dose mostly 76.9 µM), without a hit: at the top dose activity change, negative = inhibition, hits mostly inhibitors. gsp-mutant cells, cAMP HTRF, 30 min; control for the full effect not named in the record; active = falling curve of any shape with a large fitted effect; inconclusive = falling curve, mostly with a smaller effect; inactive = flat or rising curve; cell line not stated here;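 also: intracellular cAMP measured with PDE inhibitor Ro 20-1724 present during compound exposure; potency is read from the fitted curve at half-maximal effect; % is scaled to controls: 0 for no effect and ±100 for the full control effect; nearly all actives have a fitted effect of over 65% in size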
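HTRF cAMP measurement after 30 min RT detection following 30 min, 37C compound treatment alongside […] (added as 300 uM solution) in G418-selected cells seeded at 2000/well and grown 16–24 h.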
D2 potentiator – human D2 receptor positive allosteric modulation | P14416 | DiscoveRx D2 beta-arrestin cells, luminescence, 90 min; 100% = 57 uM dopamine signal | potentiation, % (concentration not given with the values) | 360,000 compounds, 0.23% hits | AID 624464; active = potentiation of 50% or more; inconclusive = 30% to 50%; inactive = 30% or less;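 also: tested on top of an EC20 dose of dopamine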
Target sequence (P14416 whole entry, looked up): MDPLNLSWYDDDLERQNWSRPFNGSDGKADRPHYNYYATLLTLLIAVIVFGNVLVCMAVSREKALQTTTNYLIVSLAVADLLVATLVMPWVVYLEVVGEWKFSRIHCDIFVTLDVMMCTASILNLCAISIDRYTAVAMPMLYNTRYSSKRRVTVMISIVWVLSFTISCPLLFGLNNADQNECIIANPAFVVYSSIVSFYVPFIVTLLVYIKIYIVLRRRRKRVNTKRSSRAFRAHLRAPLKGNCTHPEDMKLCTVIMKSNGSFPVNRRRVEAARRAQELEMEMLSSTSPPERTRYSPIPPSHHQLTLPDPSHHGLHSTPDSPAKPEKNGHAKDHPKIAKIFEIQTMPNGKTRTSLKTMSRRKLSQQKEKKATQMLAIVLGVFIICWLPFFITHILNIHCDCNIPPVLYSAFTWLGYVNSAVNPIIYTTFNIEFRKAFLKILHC
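PathHunter D2 cells, attached overnight at 37 deg C, received compound in DMSO plus dopamine at EC20 (50 nM final) for 90 min at 37 deg C. Beta-arrestin recruitment was read as luminescence after 1 h with detection reagent at ambient temperature.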
gsp agonist – activates gsp, the McCune-Albright syndrome mutation; gsp mutant cells, cAMP HTRF, 30 min; control for the full effect not named in the record; Potency, µM (titrated, usually from 76.9 µM), without a hit: top-dose activation (cAMP increase), most hits filed as activators; 340,000 compounds, 0.13% hits; AID 624287; active = well fitted activation curve with a large enough effect; inconclusive = small, poorly fitted or top-dose-only effect, or another doubt; inactive = no such curve, though single readings can be large or run the other way; cell line not stated here;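 also: phosphodiesterase inhibitor Ro 20-1724 added with compounds to block cAMP breakdown; potency is read from the fitted curve at half-maximal effect; nearly all actives have a fitted effect of over 60% in size; about a fifth of the inactives were tested at one dose only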
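Cells stably selected in G418 were plated at 2000/well, grown 16-24 hr, then given compounds in DMSO with the PDE inhibitor […] (300 uM solution added) for 30 min at 37C; cAMP was read by HTRF.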
Menin-MLL FL inh – inhibitors of human menin-MLL interaction, wild-type MLL peptide. Fluorescence polarization, fluorescein-MLL peptide displacement from menin. FP activity change, % at 61.4 µM. 290,000 tested, under 10 active. AID 1766; inconclusive = falling polarisation curve, or a change in total fluorescence; inactive = total fluorescence flat and polarisation flat or rising; no compound was filed as active; the % refers to the polarisation; negative = inhibition;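 also: % of control where 0% means no effect; inhibitors lower the polarisation; unlabelled MLL peptide was the positive control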
Sfp PPTase inh – Sfp phosphopantetheinyl transferase inhibition. Q9F4F7. Biochemical Sfp PPTase activity, qHTS. Potency, µM, without a hit: max response, negative = inhibition, actives largely listed as inhibitors. 310,000 compounds, 3.5% hits; active = well fitted inhibition curve with a large enough effect; inconclusive = small, poorly fitted or top-dose-only effect, or another doubt; inactive = no such curve, though single readings can be large or run the other way;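 also: the enzyme is Sfp with the accession as filed and its product quenches rhodamine fluorescence; potency is read from the fitted curve at half-maximal effect; 0% = enzyme reaction without inhibitor and -100% = no enzyme wells; top concentration of the series not given in the record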
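With Hepes-Na pH 7.6 buffer containing 10 mM MgCl2, Sfp (15 nM) modified BHQ-2-YbbR (12.5 uM) using rhodamine-CoA (5 uM). Two reads 30 minutes apart at 525/598 nm yielded each well's rate.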
TRPV1 PAM – potentiators of human vanilloid receptor 1 (TRPV1). TRPV1-expressing cells, Fluo-8 calcium influx, capsaicin EC20 potentiation; host cell line not named in the record; control for the full effect not named in the record. potentiation, % at 8.33 µM. 320,000 compounds, 0.02% hits. Q8NER1; active means potentiation above 80%; inconclusive means 30% to 80%; inactive means below 30%; also: 0% is about no effect
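TRPV1-expressing cells were cultured overnight at 35.5C and loaded with Fluo-8 calcium dye for 40 to 90 min at room temperature. After a 10 s baseline, compound was added and calcium influx was read kinetically for 3 min (ex 480/em 520 nm).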
Active calls of the source: *; u = inconclusive; x = no result given; [ ] = dose if it differs, or a comment.

mol	ClpP mod	gsp antag	D2 potentiator	gsp agonist	Menin-MLL FL inh	Sfp PPTase inh	TRPV1 PAM
Cc1ccc(-n2nc3c(N4CCC(C(=O)NCc5cccc(F)c5)CC4)nnc(C)c3c2C)cc1	u	0%	-7	22%	x	-22%	-16
CCC(C)(C)NC(=O)C(c1ccccn1)N(C(=O)c1csnn1)c1ccccc1 (stereo not given)	-2.3%	10%	-10	6%	-1.0	6%	-17
COCCn1cnc2c1c(=O)n(Cc1ccc(Br)cc1)c(=O)n2Cc1ccccc1	x	x	-31	21%[15.4 µM]	-4.4	-2%	u
O=C(NNC(=O)c1cc2cc(OC(F)(F)F)ccc2[nH]1)c1ccc(Cl)cc1	x	4%	6	11%[15.4 µM]	1.0	16%	-9
CN(C(=O)c1ccc(NC(=O)Cc2cccc([N+](=O)[O-])c2)cc1)C1CCCC1	-1.7%	-13%	-3	17%	x	x	x
CN(C)c1ccc(NC(=O)Cn2cc3c(n2)CCCC3)cc1	0.6%	-6%	-2	18%	4.7	-7%	12
Cc1csc(NC(=O)CSc2nc3[nH]ncc3c(=O)[nH]2)n1	-1.2%	11%	-4	-2%	2.9	5%	3
Oc1cc(CNC2CCCCC2)c(O)cc1CNC1CCCCC1	x	7%	5	38%	x	x	x
COc1cccc(-n2c(SCC(=O)N3CCOCC3)nnc2-c2c[nH]c3ccccc23)c1	-3.8%	-12%	-8	-41%[inhibitor]	0.7	12%	4
O=CNNC(=O)c1cccc([N+](=O)[O-])c1	x	9%	-3	10%[15.4 µM]	-0.9	22%	1
CC(=O)Nc1ccc(-c2nnn(CC(=O)c3ccccc3)n2)cc1Cl	2.0%	7%	-16	-24%	-3.1	1%	2
O=[N+]([O-])c1cccc(/C=C/c2nc(C=Nc3ccc4ccccc4c3)c(O)o2)c1	-13%	7%	8	-63%[inhibitor]	u	-5%	x
NC(=O)[C@@H]1CCCN1C(=O)c1cc(COc2ccc3c(c2)CCCC3)on1	3.3%	-1%	-1	9%	x	3%	2
CCS(=O)(=O)c1ncc(Cl)c(C(=O)Nc2ccccc2OC)n1	x	-33%	-3	-47%[inhibitor]	2.9	7%	1
O=C(CN(Cc1ccccc1)C1=NCCS1)c1ccccc1	-2.0%	0%	-41	u	0.2	1%	9
Cc1ccc(S(=O)(=O)C(C#N)=C2N(C)c3ccccc3N2C)cc1	x	-4%	1	-16%[15.4 µM]	-14	8%	-1
Nc1ccc(C(=O)C(=O)c2ccc(N)cc2)cc1	-1.1%	2%	-53	u	6.9	6%	-2
C/C(CCc1ccc2c(c1)OCO2)=N\NC(=O)c1ccccc1Br	x	-10%	-3	5%	-0.3	18%	-15
Cc1ccc(NC2Sc3ccccc3NC2=O)cc1 (stereo not given)	x	-1%	0	u	7.6	8.9µM*	-23
CCn1c(SCC(=O)N2CCCCC2C)nnc1-c1ccco1 (stereo not given)	x	10%	-5	0%[15.4 µM]	-0.2	-5%	-2
NS(=O)(=O)c1ccc(CCNC(=O)CN2CCN(S(=O)(=O)c3ccccc3F)CC2)cc1	x	17%	-3	1%	x	x	x
COc1ccc(C)cc1S(=O)(=O)N1CCC2(CC1)OCCN2S(=O)(=O)c1ccccc1	-28%	-5%	-10	-5%	x	x	17
COc1ccc(OC)c(C(C[N+](=O)[O-])c2c(C)cc3ccccn23)c1 (stereo not given)	x	x	-10	-12%[15.4 µM]	9.1	-23%	-3
CCOC(=O)C1=C(C)NC(=O)C1CC(=O)Nc1ccccc1 (stereo not given)	x	x	x	x	1.8	79µM*	-2
O=C(COc1ccccc1Cl)Nc1ccccc1C(=O)NC1CC1	6.0%	2%	-20	4%[15.4 µM]	x	x	-5
Cc1ccc(OCC(=O)N2CCc3ccccc32)c([N+](=O)[O-])n1	1.4%	9%	-5	-2%[15.4 µM]	-7.5	13%	8
COc1ccc(NC(=O)NC2(C(=O)N3CCN(C)CC3)CCCCC2)cc1	x	-23%	-2	25%[15.4 µM]	x	11%	2
O=C(CSc1nc(-c2ccco2)cc(C(F)(F)F)n1)N1CCc2ccccc2C1	-5.4%	-15%	-9	-2%	3.8	-17%	-3
O=C(COC(=O)CNS(=O)(=O)/C=C/c1ccccc1)NC1CCS(=O)(=O)C1 (stereo not given)	-0.3%	-2%	4	12%	4.1	1%	1
C[C@H](CO)N1C[C@H](C)[C@@H](CN(C)S(=O)(=O)c2ccc(F)cc2)Oc2ccc(NC(=O)CCN3CCOCC3)cc2C1=O	-1.2%	2%	0	-27%	x	x	x
O=C(NC(=S)NC(CO)Cc1ccccc1)c1ccc(F)cc1 (stereo not given)	0.1%	-3%	-1	u	-3.5	8%	-15
CCOc1ccc(NC(=O)NC2CC(=O)N(c3ccc(OC)cc3)C2)cc1 (stereo not given)	x	2%	3	40%	0.4	10%	-11
CCOC(=O)c1c(-c2ccc(C)cc2)csc1NC(=O)CCN1CCOCC1	-5.1%	-10%	-2	-32%[inhibitor]	1.8	u	-3
Cc1ccccc1-c1cc(C(=O)Nc2sc(C(=O)OC(C)C)c(C)c2C#N)c2ccccc2n1	0.7%	11µM*	-1	-28%	3.4	40µM*	-2
Cc1ccc(C)c(OCCC(=O)OCC(=O)NCc2ccc(F)cc2)c1	-0.1%	9%	-25	15%	-4.4	3%	-17
NC(=O)C(Cc1ccccc1)NC(=O)C12CC3CC(CC(C3)C1)C2 (stereo not given)	1.3%	-1%	-12	0%[15.4 µM]	5.3	1%	-4
O=C(CN1C(=O)NC2(CCc3ccccc32)C1=O)Nc1ccc(N2CCOCC2)cc1 (stereo not given)	-2.1%	10%	1	2%	2.5	9%	15
CC(=O)Nc1ccc(CN2CCCC(C(=O)c3ccc(C(F)(F)F)cc3)C2)cc1 (stereo not given)	x	-3%	-5	13%	4.1	5%	-9
Cn1/c(=N/N=C/c2ccc(N3CCOCC3)cc2)sc2ccccc21	-1.5%	3%	-7	27%	4.8	3%	-4
O=C(NC(=S)NC1CCS(=O)(=O)C1)c1ccccc1Br (stereo not given)	1.6%	6%	-19	-9%	x	11%	7
N#Cc1ccc(S(=O)(=O)N2CCN(CC(=O)Nc3ccccc3C(=O)NC3CC3)CC2)cc1	-3.2%	-12%	-1	4%	x	x	8
COc1ccc(/C=N/NC(=O)c2cccnc2)cc1CN1CCOCC1	-0.3%	10%	-10	-9%[15.4 µM]	-1.3	7%	8
COc1ccc(/C=C/C(=O)Nc2cccc(S(=O)(=O)NC3=NCCCCC3)c2)cc1	-5.7%	-19%	-10	24%	-1.3	13%	9
Cc1c(N/C(=N/S(=O)(=O)c2cc([N+](=O)[O-])ccc2Cl)c2ccccc2)c(=O)n(-c2ccccc2)n1C	x	x	7	14%[15.4 µM]	0.1	5%	2
CCOc1ccc(N(CC(=O)N2CCN(c3ccc(F)cc3)CC2)S(=O)(=O)c2c(C)noc2C)cc1	0.8%	-18%	0	21%	x	9%	-12
C[C@H](CO)N1C[C@H](C)[C@@H](CN(C)Cc2ccccc2)Oc2c(NC(=O)C3CCCCC3)cccc2C1=O	-1.5%	u	-6	x	x	x	x
CC[C@]1(C(=O)OC)[C@H]2C(=O)N(C)C(=O)[C@H]2[C@H]2CN(C)C(=NC3CCCCC3)N21	1.3%	13%	-2	x	x	x	x
O=C(C1=C[C@H](c2csc3ccccc23)C[C@H](OCc2ccc(CO)cc2)O1)N1CCN(Cc2ccccc2)CC1	-3.4%	-19%	-12	u	17	15%	3
COc1ccc(N2CCN(C(=O)C(=O)c3cn(CC(=O)N4CCCC4)c4ccccc34)CC2)cc1	1.1%	x	-8	5%	x	x	x
O=C(Nc1nccs1)c1cc(-c2ccco2)nc2ccccc12	-11%	7%	15	19%	16	-79%	10
COc1ccc(/C=N/NC(=O)CC(=O)NCc2cccnc2)cc1[N+](=O)[O-]	0.6%	10%	-17	3%	-0.4	11%	-7
COc1ccc(/C(O)=C2\C(=O)C(=O)N(c3cc(C)on3)C2c2ccc(OC)c(OC)c2)cc1OC (stereo not given)	1.2%	14%	8	23%	-0.7	19%	8
O=S(=O)(/C=C/c1ccccc1)N1CCN(c2nc(-c3ccccc3)nc3ccccc23)CC1	x	-10%	12	u	-3.2	7%	-3
Cc1ccc(CN2C(=O)CCC2C(=O)N2CCN(c3ccccc3)CC2)cc1 (stereo not given)	-0.4%	-3%	-13	-29%	-0.9	u	-5
CCN(CC(=O)NCc1ccc(F)cc1)C(=O)CCNS(=O)(=O)c1cccc(C)c1	-0.4%	-10%	-4	-12%	x	x	-2
COc1cccc(-c2cc(C(=O)NCCCN3CCOCC3)no2)c1	0.2%	-2%	-10	0%[15.4 µM]	2.3	11%	-10

Screens as filed in PubChem BioAssay.
